# Mtb hypoxia inh: inhibitors of hypoxia-regulated fluorescent reporter in Mycobacterium tuberculosis; M. tuberculosis hypoxia-regulated fluorescent reporter, fluorescence; fluorescence inhibition, % (concentration not given with the values); 300,000 tested, 0.1% active;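 active = 35 to 45% if threefold the growth effect, above 45% if 1.5-fold the growth effect; inactive = the rest, general growth blockers included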;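 also: wells of about 50 µL received 100 nL stock; 0% = vehicle wells and 100% = reference inhibitor wells; whole bacteria with a GFP reporter of the hypoxia response; strong numbers were not always called active; many hits fall short of the cut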
# Sa RN4220 lethal: kills Staphylococcus aureus RN4220; S. aureus RN4220 growth, OD600, 16 h; inhibition, % (no concentration beside the values); 330,000 tested, 0.33% active; AID 1259311;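 active = z-score of -3 or lower and OD600 up to 0.18 on both plates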;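 also: plate controls were untreated cells for no effect and reference antibiotic for full effect; stock transfer was 100 nL into about 80 µL; one replicate is shown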
# Autofluor counter: counter-screen for toxin protease inhibitors: compound fluorescence | 360,000 tested, 3.1% active | compound autofluorescence counterscreen, microsphere flow cytometry; active compounds read high | fluorescence intensity (no concentration beside the values);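 active = at least 3 SD above the mean of all compounds, about 16000 in these data; inconclusive = too few beads counted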;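 also: 100 nL of 1 mM stock went into each well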
# BJeLR viability: BJeLR cell viability loss; BJeLR (HRASV12) viability, CellTiter-Glo ATP luminescence, 48 h; reference of the scale not given here; inhibition, % (concentration not given with the values); 300,000 tested, 0.17% active; AID 1554;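 active = replicate mean above 50%; inconclusive = above 50% but judged a plate artefact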;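 also: 50 nL library stock added to about 25 µL; numbers are from one replicate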
# PrP UTR inh: inhibition of PrP 5' UTR reporter expression. AID 488862. 340,000 tested, 0.35% active. cell-based PrP 5' UTR mRNA reporter, plate reader. inhibition, % (concentration not given with the values);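 active = every replicate at 50% or more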;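 also: 0 = median of the neutral control wells; tested in H4 reporter cells; numbers are from one replicate; inactives centre near -14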
# Sa ugtP lethal: kills S. aureus RN4220 lacking UgtP. 330,000 tested, 0.54% active. growth inhibition, % (test concentration not listed). S. aureus RN4220 ugtP deletion, OD600 growth, 16 h; some inactives read as strong as hits;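 active = z-score under -3 and OD600 up to 0.15 on both plates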;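 also: plate controls were untreated wells for no effect and antibiotic for full effect; wells of about 80 µL received 100 nL stock; the first replicate is given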
# Mtb hypoxia inh growth: second read-out of Mtb hypoxia inh, no call of its own (marks repeat the call); growth inhibition, %; measured here: M. tuberculosis growth (absorbance);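 0% = vehicle and 100% = reference antibiotic; read after six days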
# Active calls of the source: *; ? = inconclusive; · = no result given.
# Value order: Mtb hypoxia inh, Mtb hypoxia inh growth, Sa RN4220 lethal, Autofluor counter, BJeLR viability, PrP UTR inh, Sa ugtP lethal
CCN1CCN(c2ccc(S(=O)(=O)N3CCCCC3)cc2NC(=O)c2ccc([N+](=O)[O-])o2)CC1
→ 6, 9, 10.0, ?, 1, -4, 3
COc1ccc(-c2cccc(C3CC=CC4C3C(=O)N(Cc3ccccc3)C4c3ccc4ccccc4c3)c2)cc1 (stereo not drawn)
→ -8, -4, 15, 3541, 5, -7, 0
Cc1nnc(SCC(=O)NNC(=O)COc2ccc(Cl)cc2)n1C
→ -2, -7, 2.3, 4514, -4, -1, -1
Cc1ccc(SCC(=O)NCCc2ccccc2)cc1
→ 0, 7, 1.7, 4597, -8, -19, 7
CCC(=O)Nc1nnc(SCC(=O)NCc2ccc3c(c2)OCO3)s1
→ 11, 5, -0.5, ?, -10, -4, 5
Cc1nnsc1C(=O)N1CCCC(Nc2ccc(C(C)C)cc2)C1 (stereo not drawn)
→ -1, -11, 2.3, 5096, 1, -22, 5
CC1(c2ccc3c(c2)OCO3)NC(=O)N(CC(=O)Nc2ccc(N3CCOCC3)cc2)C1=O (stereo not drawn)
→ 4, 11, 2.0, 6611, -1, -15, 5
CC(C)Cn1c(/C=C/c2ccco2)nc2ccccc21
→ 3, 1, 4.6, 3283, 8, -21, 1
CCN1CCN(c2nc3ccccc3nc2C(C#N)C(=O)OC2CCCCC2)CC1 (stereo not drawn)
→ -3, 10, -3.2, ·, ·, -8, -19
COCCNC(=O)c1ccc(Cn2c(=S)[nH]c3cc4c(cc3c2=O)OCO4)cc1
→ 2, 9, 4.8, 22929*, 6, -24, -6
COCCCNC(=S)N(CCO)Cc1cc2cc3c(cc2[nH]c1=O)OCO3
→ -11, -3, 0.4, 4473, 1, 8, 3
C=CCn1c(C)cc(C(=O)CSc2nnc(Cc3ccccc3)o2)c1C
→ 7, 0, -0.1, 9647, 1, -17, 9
COc1ccccc1NC(=O)CCCCCN1C(=O)c2cccc3cccc(c23)C1=O
→ -2, -7, -1.1, 4195, 4, -9, 5
CCc1ccc(NC(=O)Cn2ncn3c(cc4ccccc43)c2=O)cc1
→ 3, 0, 2.5, 4427, 8, 1, 8
COc1ccc(CNC(=O)c2csc3c2CCCC3)cc1
→ 21, 15, -2.5, 3939, ·, -16, 2
COc1ccc(-c2cccc(NS(=O)(=O)c3ccc([N+](=O)[O-])cc3)c2)nn1
→ ·, ·, ·, 6590, -1, -14, ·
COc1ccc(NC(=O)CC2Nc3cccc4cccc(c34)NC2=O)cc1 (stereo not drawn)
→ 7, 10, -1.9, 4082, 1, -15, 6
COc1ccc(Cl)cc1NC(=O)Cn1nnc(C(=O)NCc2ccc3c(c2)OCO3)c1N
→ 3, -8, 3.3, 5381, -15, -11, -5
COc1ccc(NC(=O)CCC(=O)c2cccs2)c(OC)c1
→ 10, 8, 2.8, 5188, 4, -16, 6
NC(=O)c1ccc(NC(=O)COC(=O)C=Cc2cccs2)cc1
→ 1, 4, 4.7, ·, ·, ·, 1
COc1ccc(NC(=O)[C@@]2(CC(=O)O)CC(/C=C/c3ccccc3)=NO2)cc1
→ 2, -2, 7.4, 3108, 4, 10, 8
CCOc1ccc(S(=O)(=O)N2CCC(C(=O)OCc3cccc(OC)c3OC)CC2)cc1
→ 4, 1, 0.7, 3900, ·, -10, 10
C[C@H]1CC[C@]2(O[C@H](CCO)C[C@@H](O)[C@@H]2O)O1
→ ·, ·, ·, 3043, -5, -3, ·
NS(=O)(=O)c1ccc(CCNC(=O)c2ccc3nccnc3c2)cc1
→ -12, 6, 0.1, 2832, ·, -6, -4
CC(=C/c1ccccc1)/C=N/NC(=O)CSc1nc(C)cc(C)n1
→ ·, ·, ·, 2361, 0, -84, ·
O=[N+]([O-])c1ccc(O)c(C=NNC(=S)Nc2ccc(Cl)cc2Cl)c1
→ 10, 0, 83, ·, ·, ·, 100*
Cc1ccccc1N/C(=N/S(=O)(=O)c1cc(F)ccc1F)c1ccccc1
→ 1, 3, 4.7, 6697, -3, -12, 0
OCCOCCn1c2ccccc2c2ccccc21
→ ·, ·, 2.6, 3569, -12, -15, 11
O=C(N/N=C\c1ccccn1)C1COc2cc3ccccc3cc2O1 (stereo not drawn)
→ ·, ·, ·, 8385, -3, -16, ·
COc1cccc(C(=O)Nc2cccc(OC(C)=O)c2)c1
→ 10, 11, 3.9, 8719, -1, -52, 16
COc1ccc(NC(=O)C2=C(C)NC(=O)NC2c2cccs2)c(OC)c1 (stereo not drawn)
→ 13, 8, 0.9, 4278, -3, -21, 5
Cc1[nH]c(=O)[nH]c(=O)c1S(=O)(=O)Nc1ccc(Oc2ccccc2)cc1
→ ·, ·, -7.9, 2188, -2, -23, 11
O=c1[nH]nc(-c2ccccc2)cc1-c1ccccc1
→ 5, 0, 3.5, 4121, -5, 4, 13
CCCN(c1ccccc1F)S(=O)(=O)c1cc(-c2cc(C)no2)ccc1OC
→ 15, 3, 9.0, 4798, 3, 3, 19
COc1cccc(N2CCN(C(=O)c3cccn4c(=O)c5c(C)c(C)sc5nc34)CC2)c1
→ -1, -6, 0.3, 3266, 1, 5, 10
CCCOC(=O)c1sc2nc3c(cc2c1N)C(=O)CCC3
→ 20, 8, -10, 2955, 3, -50, -11
COc1cc(Cl)c(C)cc1NC(=O)CNC(C)c1ccccc1OC (stereo not drawn)
→ -1, 5, 0.2, 3290, -4, -16, 0

# In the list so far, these contain an aryl methoxy group:
# Value order: Mtb hypoxia inh, Mtb hypoxia inh growth, Sa RN4220 lethal, Autofluor counter, BJeLR viability, PrP UTR inh, Sa ugtP lethal
COc1ccc(-c2cccc(C3CC=CC4C3C(=O)N(Cc3ccccc3)C4c3ccc4ccccc4c3)c2)cc1 (stereo not drawn)
→ -8, -4, 15, 3541, 5, -7, 0
COc1ccccc1NC(=O)CCCCCN1C(=O)c2cccc3cccc(c23)C1=O
→ -2, -7, -1.1, 4195, 4, -9, 5
COc1ccc(CNC(=O)c2csc3c2CCCC3)cc1
→ 21, 15, -2.5, 3939, ·, -16, 2
COc1ccc(-c2cccc(NS(=O)(=O)c3ccc([N+](=O)[O-])cc3)c2)nn1
→ ·, ·, ·, 6590, -1, -14, ·
COc1ccc(NC(=O)CC2Nc3cccc4cccc(c34)NC2=O)cc1 (stereo not drawn)
→ 7, 10, -1.9, 4082, 1, -15, 6
COc1ccc(Cl)cc1NC(=O)Cn1nnc(C(=O)NCc2ccc3c(c2)OCO3)c1N
→ 3, -8, 3.3, 5381, -15, -11, -5
COc1ccc(NC(=O)CCC(=O)c2cccs2)c(OC)c1
→ 10, 8, 2.8, 5188, 4, -16, 6
COc1ccc(NC(=O)[C@@]2(CC(=O)O)CC(/C=C/c3ccccc3)=NO2)cc1
→ 2, -2, 7.4, 3108, 4, 10, 8
CCOc1ccc(S(=O)(=O)N2CCC(C(=O)OCc3cccc(OC)c3OC)CC2)cc1
→ 4, 1, 0.7, 3900, ·, -10, 10
COc1cccc(C(=O)Nc2cccc(OC(C)=O)c2)c1
→ 10, 11, 3.9, 8719, -1, -52, 16
COc1ccc(NC(=O)C2=C(C)NC(=O)NC2c2cccs2)c(OC)c1 (stereo not drawn)
→ 13, 8, 0.9, 4278, -3, -21, 5
CCCN(c1ccccc1F)S(=O)(=O)c1cc(-c2cc(C)no2)ccc1OC
→ 15, 3, 9.0, 4798, 3, 3, 19
COc1cccc(N2CCN(C(=O)c3cccn4c(=O)c5c(C)c(C)sc5nc34)CC2)c1
→ -1, -6, 0.3, 3266, 1, 5, 10
COc1cc(Cl)c(C)cc1NC(=O)CNC(C)c1ccccc1OC (stereo not drawn)
→ -1, 5, 0.2, 3290, -4, -16, 0
